Bioassay records from PubChem BioAssay.
Measles inh: inhibitors of measles virus growth in infected cells. z-score (test concentration not listed). infected Vero cells, GFP fluorescence, 64 h; stronger effect = lower value. AID 745. actives 0.1% (n = 33,000);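 active means z-score under -3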;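 further: score is relative to mean and SD of the compound wells of a plate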
The depositor's hits bear a star. Only part of the results is shown; count on the stated rates, not on these rows.

SMILES	Measles inh
COc1ccccc1C(=O)Nc1ccc(Cl)c(-c2nc3cc(C)ccc3o2)c1	-0.67
Nc1ccccc1C(=O)NCCNC(=O)c1ccccc1N	0.3
Cc1ccc(S(=O)(=O)NCC(=O)O)cc1	0.01
CCOCCOC(=O)C1=C(C)NC2=C(C(=O)CC(C)(C)C2)C1c1cccc(Br)c1 (centres undefined)	-0.8
CCCCN(C)c1ncnc2c1c(-c1ccccc1)cn2-c1cccc(C)c1	-0.61
CCOc1ccc(-n2c(C)nc3cc(C(=O)NCc4ccc(C)cc4)ccc32)cc1	-0.22
CC1=C(C(=O)N2CCOCC2)C(c2cccc([N+](=O)[O-])c2)C2=C(CC(C)(C)CC2=O)N1 (centres undefined)	0.85
CCOC(=O)c1c(C)n(C)c2ccc(OC(C)C(=O)OC)cc12 (centres undefined)	-0.54
CC(=O)Nc1nc2c(s1)C(=O)CC(C)(C)C2	2.8
Cc1ccc(S(=O)(=O)NCC2CCC(C(=O)N3CCN(c4cc(C)ccc4C)CC3)CC2)cc1 (centres undefined)	-0.63
COCCNc1ccc(N2C(=O)CCCC2=O)cc1[N+](=O)[O-]	-0.16
Cc1nc(NCCN2CCOCC2)c2sc3nc4c(cc3c2n1)COC(C)(C)C4	1.1
CCc1ccccc1N1C(=O)C2C3C=CC(C3)C2C1=O (centres undefined)	-0.68
CCCCCS(=O)(=O)CC1CC1(Cl)Cl (centres undefined)	2.1
COCCOC(=O)C1=C(C)NC2=C(C(=O)CC(C)(C)C2)C1c1ccc(Br)cc1 (centres undefined)	-0.89
CCCCN(CC)C(=O)c1nn(-c2ccc(C)cc2)c(=O)c2c1c1ccccc1n2C	0.02
COc1ccc(CCNc2cc(N3CCN(C(=O)c4ccc(C)cc4)CC3)ccc2[N+](=O)[O-])cc1OC	-0.38
Cc1ccc(CS(=O)(=O)CCC(=O)NCCN(C)C)cc1	-0.32
COc1ccc(C(=O)N2N=C(C(C)C)CC2(O)C(F)(F)F)cc1OC (centres undefined)	-0.23
NC(=O)c1ccc(NC(=O)CCC(=O)Nc2ccc(C(N)=O)cc2)cc1	1.2
Cc1cccn2c(=O)c3cc(C(=O)NCC4CCCO4)c(=N)n(CCc4ccccc4)c3nc12 (centres undefined)	0.65
COC(=O)c1ccccc1NC(=O)CSc1nc2ccsc2c(=O)n1-c1ccc(F)cc1	1.4
O=C(NCCN1CCC(Cc2ccccc2)CC1)C1CCN(S(=O)(=O)c2cccc3nsnc23)CC1	-0.09
CCOC(=O)c1ccc(NC(=O)c2sc(=S)n(-c3cccc(OC)c3)c2N)cc1	0.88
COc1ccc(C2CC(=O)N2C2(C(=O)Nc3c(C)cccc3C)CCCCC2)cc1OC (centres undefined)	-1.1
COc1ccc(CNc2cc(C)cc(C)c2)c2ccccc12	-0.24
O=C(Nc1cccc(F)c1)c1c(O)c2ccccc2[nH]c1=O	0.42
CCOc1cccc(NC(=O)C2CC(=O)N(Cc3ccc(OC)cc3)C(=Nc3ccccc3)S2)c1 (centres undefined)	0.68
O=C(NC1CCCCC1)c1cc(-c2cccs2)on1	0.12
CC(=O)CCS(=O)(=O)c1ccc(C)cc1	1.3
Cc1nc(C)c(-c2csc(Nc3cccc(Cl)c3C)n2)s1	-0.02
CCN(CC)c1ncnc2c1ncn2C1OC(CO)C(O)C1O (centres undefined)	-0.87
COc1ccc(-n2c(=S)[nH]c3cc(C(=O)Nc4cc(C(N)=O)ccc4OC)ccc3c2=O)c(OC)c1	1.9
CCN(CC)Cc1c(O)ccc2c(=O)c(Oc3ccccc3Br)c(C(F)(F)F)oc12	0.31
Cc1ccc(-c2nc3ncccn3c2NC2CCCC2)o1	-1.3
COc1cc(C2SCC(=O)N2Cc2ccccc2)cc(OC)c1OC (centres undefined)	-0.15
COC(=O)C1=C(C)N=C2SC(C)C(=O)N2C1c1ccc(OC)c(OC)c1 (centres undefined)	-1.1
O=C(Nc1ccc2oc(-c3ccccc3Cl)nc2c1)c1ccc(Cl)c([N+](=O)[O-])c1	-0.93
O=C(NCc1ccco1)C1CCC(Cn2c(=O)[nH]c3ccccc3c2=O)CC1 (centres undefined)	-0.46
O=C(COc1ccc(N2C(=O)c3ccccc3NC2c2ccccc2)cc1)Nc1ccccc1 (centres undefined)	0.26
Cc1cccc(NC(=O)C2C(c3ccccc3)=C2c2ccccc2)c1C	3.7
CCOC(=O)c1sc(NC(=O)c2sc3ccccc3c2Cl)c(C(=O)OCC)c1C	0.95
COC(=O)c1ccc(NS(=O)(=O)c2ccc(OC)cc2)cc1	-0.96
CCOc1ccccc1NC(=O)C1c2ccccc2C(=O)N(c2ccc(OC)cc2)C1c1ccc(OC)cc1 (centres undefined)	2.7
COc1ccccc1NC(=O)c1cc(S(=O)(=O)N2CCC(C)CC2)ccc1F	-1.6
COC(=O)c1c(NC(=O)COc2ccc(F)cc2)sc(C)c1C	-0.41
Cc1ccc(C(=O)NCc2nnc(SCC(=O)c3ccccc3)n2-c2cccc(C(F)(F)F)c2)cc1[N+](=O)[O-]	-0.23
O=C(Cc1c(C(=O)O)[nH]c2ccccc12)NC1CCCC1	-0.39

Sorted by heavy-atom count (smallest number first): some entries from above
SMILES	Measles inh
O=C(Cc1c(C(=O)O)[nH]c2ccccc12)NC1CCCC1	-0.39
COC(=O)C1=C(C)N=C2SC(C)C(=O)N2C1c1ccc(OC)c(OC)c1 (centres undefined)	-1.1
O=C(Nc1ccc2oc(-c3ccccc3Cl)nc2c1)c1ccc(Cl)c([N+](=O)[O-])c1	-0.93
CCOc1ccccc1NC(=O)C1c2ccccc2C(=O)N(c2ccc(OC)cc2)C1c1ccc(OC)cc1 (centres undefined)	2.7

Next records
SMILES	Measles inh
CS(=O)(=O)Nc1cccc(C2=NN(S(=O)(=O)c3ccccc3)C(c3ccccc3F)C2)c1 (centres undefined)	-0.35
COC(=O)CCC(=O)Nc1ccc(Nc2ccccc2)cc1	-1
Cc1c(Cc2ccccc2)sc(NC(=O)COc2ccccc2)c1C(N)=O	-0.24
Cn1c(=O)n(C)c2cc([N+](=O)[O-])c(NC3CCCCC3)cc21	-2.4
Cc1ccccc1NC(=O)c1c(C)nc(SCC(N)=O)c(C#N)c1-c1ccc(Cl)cc1	-0.11
C=CCN(c1ccccc1)S(=O)(=O)c1ccc2c(c1)CC(C)N2C(=O)CC (centres undefined)	1.3
CCCS(=O)(=O)c1c(S(=O)(=O)CCC)c2ccc(C(N)=O)cn2c1C(=O)c1ccc(F)cc1	-0.59
CCOC(=O)Cc1cc(=O)[nH]c(/N=C(/N)Nc2ccc(OCC)cc2)n1	-0.43
CCn1cc(C(=O)NCCOC)c(=O)c2ccc(C)nc21	0.48
CC1=C(C(=O)OCC2CCCO2)C(c2ccccc2Cl)C2=C(CCCC2=O)N1 (centres undefined)	0.18
O=C1Nc2cc(C(=O)N3CCc4ccccc4C3)ccc2SC1N1CCCCC1 (centres undefined)	0.05
COc1ccc(S(=O)(=O)NCCC(=O)O)cc1	0.11
COc1cccc2cc(-c3csc(CC#N)n3)c(=O)oc12	1.3
Clc1ccc(NCc2nc3ccccc3n2CCOc2ccccc2)cc1	-0.21
CCOc1ccc(Nc2ncnc(N)n2)cc1	-0.13
NC(=O)COc1ccc(-n2cnnn2)cc1	-1.1
CCCCCn1c(NCCCC)nc2c1c(=O)[nH]c(=O)n2C	-0.97
CC1CC(C)(C)NC(=S)N1c1cccc(O)c1 (centres undefined)	-0.44
CCCOC(=O)C1=C(C)NC2=C(C(=O)CCC2)C1c1cc(OC)c(OC)cc1[N+](=O)[O-] (centres undefined)	0.1
COc1ccc(CN2C(=O)CN(C3CCCCCC3)C(=O)C2c2ccc(OC(C)C)c(OC)c2)cc1 (centres undefined)	0.26
CCC(C)N1C(=O)CCC1C(=O)NCCc1ccc(Cl)cc1 (centres undefined)	-1.8
O=C1c2ccc(F)cc2C(=O)N1Cc1ccc(F)cc1	0.18
O=C(Nc1ccc(Br)cc1)C1CCCN(S(=O)(=O)c2ccc(Br)s2)C1 (centres undefined)	-0.82
COc1ccc(CCC(=O)NCCOc2ccc(C)cc2)cc1	0.86
COC(=O)c1c(NC(=O)CSc2ccccn2)sc2c1CCC(C(C)(C)C)C2 (centres undefined)	0.69
O=CN1CCN(C(C(=O)NC2CCCCC2)c2ccc(Cl)cc2)CC1 (centres undefined)	0.73
Cc1ccc(C(=O)COC(=O)c2ccc(N3C(=O)C4CCC(C)CC4C3=O)cc2)cc1[N+](=O)[O-] (centres undefined)	0.38
Cc1ccc(NC(=O)Cn2c(=O)[nH]c3ccsc3c2=O)cc1	-0.38
COc1ccc(S(=O)(=O)N2CCCN(S(=O)(=O)c3ccc(OC)cc3)CC2)cc1	-0.1
Cc1ccc(C2C(=O)N(C3CCC(C)CC3)CC(=O)N2CCC2=CCCCC2)cc1 (centres undefined)	0.42
COc1ccc(OC)c(NC(=O)c2ccc(-c3ccc([N+](=O)[O-])cc3)o2)c1	0.61
Cc1ccc(C(=O)Nc2ccc(NC(=O)c3ccc(C(C)(C)C)cc3)cc2)cc1[N+](=O)[O-]	1.7
CCOc1ccc(C2CC(c3ccc(Cl)cc3)Nc3ncnn32)cc1OC (centres undefined)	-0.48
O=C(CC1(O)C(=O)N(Cc2ccc(Cl)cc2)c2ccccc21)c1ccc(Br)cc1 (centres undefined)	-2.3
CCN(C(=O)c1ccc(N2CC3CC(C2)c2cccc(=O)n2C3)c(NC(=O)c2cc(OC)ccc2Br)c1)c1cccc(C)c1 (centres undefined)	0.62
Cc1nn2c(Br)c(C)[n-][n+]2c1Br	0.27
O=C(NCC1CCCO1)c1ccc(Cn2c(SCc3cccc([N+](=O)[O-])c3)nc3ccccc3c2=O)cc1 (centres undefined)	0.42
Cc1ccc(Oc2ccc([N+](=O)[O-])cc2)cc1[N+](=O)[O-]	0.96
O=C(NCc1ccco1)c1ccc2c(=O)n(C3CCCCC3)c(SCc3ccc(Cl)cc3)nc2c1	1.9
CCCCNC(=O)NS(=O)(=O)c1c(C)cc(C)nc1Cl	1
CCCC(=O)Nc1ccc2nn(-c3ccc(CC)cc3)nc2c1	1
COc1cccc(-n2c(C)c3c(C)nnc(C)c3c2C)c1	0.86
O=C(C1CCN(S(=O)(=O)c2ccc(Br)s2)CC1)N1CCN(Cc2ccccc2)CC1	0.22
COC(=O)C1=CNC=C(C(=O)OC)C1c1ccc(C)s1	-1.1
O=S(=O)(c1ccc(-c2csc(=Nc3ccc(F)cc3)n2Cc2ccco2)cc1)N1CCCC1	-0.43
CCCC(CCC)C(=O)NCCc1cc2cc(C)c(C)cc2[nH]c1=O	-0.5
CCOc1ccc(CN=c2c([N+](=O)[O-])nn(-c3ccccc3)n2O)cc1OC	0.99
O=C(CCOc1ccccc1)Nc1ccccc1	0.44
CC1CCC(NC(=O)C2(C)CCC(=O)N2Cc2cccnc2)CC1 (centres undefined)	0.36
CCOc1ccc(-c2nnc(Nc3ccc(C(=O)N(CC)CC)cc3)c3ccccc23)cc1	0.09
CC(C)c1ccc(-c2nc(N3CCCC3)[nH]c(=O)c2C#N)cc1	-0.68
O=C(CN1CCN(C(=O)c2ccco2)CC1)Nc1ccc2c(c1)OCCO2	0.34
CN(C)c1ccc(C2NC(c3ccc(N(C)C)cc3)C3CCCC2C3=O)cc1 (centres undefined)	1.9
COc1ccc(-n2c(CNC(=O)COc3ccccc3)n[nH]c2=S)cc1	0.01
CCc1ccc(NC(=O)CSc2nccn2-c2cccc(OC)c2)cc1	1.6
COc1cc(NC(=O)c2noc3c2CC(C(C)(C)C)CC3)c(OC)cc1Cl (centres undefined)	-0.27
Cc1cc(-c2ccccc2)nc2cc(C(=O)Nc3cc(Oc4ccc(O)cc4)cc([N+](=O)[O-])c3)nn12	-0.08
CC1CCCCN1S(=O)(=O)c1ccc(C(=O)Nc2nc3c(s2)CSc2ccccc2-3)cc1 (centres undefined)	-0.14
Nc1ccccc1N1CCCCC1	0.12
Cc1ccc(-n2nc3c(c2NC(=O)c2ccccc2I)CSC3)c(C)c1	-0.27
Further structures follow.
SMILES	Measles inh
COc1cccc(-n2c(N)c(C(N)=O)sc2=S)c1	0.25
Cc1ccc(S(=O)(=O)Nc2ccccc2-c2nc3ccccc3c(=O)o2)cc1	-0.04
COc1ccc(-n2nc3c(c2NC(=O)c2ccccc2OC)CS(=O)C3)cc1 (centres undefined)	0.58
COc1cc(OC)cc(-n2nc(C(=O)N3CCCC3)c3ccccc3c2=O)c1	1.6
Cc1cc(C)cc(N2C(=O)c3ccccc3NC2c2ccccc2Cl)c1 (centres undefined)	1.5
O=C(CSc1nc2c(c(=O)n1-c1ccc(Cl)cc1)SCC2)Nc1nccs1	-0.44
O=C(CCN1C(=O)C2C3C=CC(C3)C2C1=O)Nc1cccc(Cl)c1 (centres undefined)	-1.4
CCn1c[n+](CC(O)COc2ccccc2C)c2ccccc21 (centres undefined)	0.76
O=C1CCCC2=C1C(c1ccccc1)CS2 (centres undefined)	1.1
CC1=C(C(=O)OCC(C)C)C(c2ccc(C)s2)C2=C(CC(C)(C)CC2=O)N1 (centres undefined)	1.4
CN1C(=O)C(C(=O)NC(C)(C)C)C2CC1(C)Oc1ccccc12 (centres undefined)	0.59

6 entries from above, with bars between the fields.
Compound | Measles inh
COc1cc(OC)cc(-n2nc(C(=O)N3CCCC3)c3ccccc3c2=O)c1 | 1.6
Cc1cc(C)cc(N2C(=O)c3ccccc3NC2c2ccccc2Cl)c1 (centres undefined) | 1.5
O=C(CSc1nc2c(c(=O)n1-c1ccc(Cl)cc1)SCC2)Nc1nccs1 | -0.44
O=C(CCN1C(=O)C2C3C=CC(C3)C2C1=O)Nc1cccc(Cl)c1 (centres undefined) | -1.4
CCn1c[n+](CC(O)COc2ccccc2C)c2ccccc21 (centres undefined) | 0.76
O=C1CCCC2=C1C(c1ccccc1)CS2 (centres undefined) | 1.1
